HPGD inh = inhibitors of human 15-hydroxyprostaglandin dehydrogenase (HPGD); P15428; purified HPGD, NADH fluorescence kinetic, PGE2 substrate; Potency, µM, for the others: at the top dose activity change, negative = inhibition, hits mostly inhibitors; hit rate 4.3% among 150,000; AID 894; active = well fitted inhibition curve with a large enough effect (not every such curve was filed as active); inconclusive = small, poorly fitted or top-dose-only effect, or another doubt; inactive = no such curve, though single readings can be large or run the other way;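 further: top concentration of the series not given in the record; plate controls included wells without enzyme; inactives centre near -10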
Target sequence (P15428 whole entry, looked up): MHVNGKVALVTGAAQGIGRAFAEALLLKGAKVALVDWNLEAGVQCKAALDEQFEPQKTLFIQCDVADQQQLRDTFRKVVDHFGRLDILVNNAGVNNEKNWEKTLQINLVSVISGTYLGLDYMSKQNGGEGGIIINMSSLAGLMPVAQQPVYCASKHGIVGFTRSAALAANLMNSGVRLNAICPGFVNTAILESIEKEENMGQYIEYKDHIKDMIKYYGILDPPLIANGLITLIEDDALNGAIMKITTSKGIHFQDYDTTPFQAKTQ
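20 nM HPGD preincubated 15 min at room temperature with compound in 50 mM Tris-HCl pH 8, 0.01% Tween 20. Started with 1 mM NAD+ and 30 uM prostaglandin E2; NADH fluorescence (360/450 nm) read 5 times over 30-s intervals, last minus first.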
* hit, by the source's call; ? = inconclusive; & = joins results of further samples. On the % scale 0 is the no-effect control and ±100 the full control effect; potency means the concentration at half of the fitted maximal effect. An excerpt (hit frequency here may not be typical).

SMILES	HPGD inh
CC(C(N)=O)N1CC(c2ccc(Cl)cc2)CC1=O (configuration not stated)	-1%
Cc1cccc(NC(=O)CSc2nnc([C@@H](N)Cc3c[nH]c4ccccc34)o2)c1C	-14%
N/C(=N\[N+](=O)[O-])N/N=C/c1ccc(O)cc1	-18%
CC(=O)Nc1ccccc1OC(=O)N(C)C	-10%
C=CCSc1nnc(NC(=O)c2ccc(Cl)nc2)s1	28µM*
CCCC1(CCC)C(=O)NC(=NCc2ccccc2)NC1=O	-4%
CN(C(=O)Oc1cccc2cccnc12)c1ccccc1	-5%
NCC1(CC(=O)O)CCCCC1	-3%&-7%&-1%&-2%
COc1ccc(NC(=O)N2CC[C@@]3(CCCN(C(=O)Oc4ccccc4)C3)C2)cc1	-7%
O=C(Cc1ccccc1)NC(Oc1ccccc1Cl)C(Cl)(Cl)Cl (configuration not stated)	?
O=C(CCn1c(=O)oc2ccccc21)N1CCC2(CC1)OCCO2	-10%
COc1ccc(C(=O)O[C@H]2CC[C@@]3(C)[C@H]4CC[C@H]5[C@]3(C[C@]3(O)[C@H]6CN7C[C@H](C)CC[C@H]7[C@](C)(O)[C@]6(O)[C@H](O)C[C@]53O)O[C@]24O)cc1OC	-3%
CCCCC/C=C\C/C=C\CCCCCCCCCC(=O)NCCc1ccc(O)c(O)c1	-5%
CC1=NN(c2ccccc2)C(=O)C1/C=C1/C(=O)NC(=O)N(c2cc(C)cc(C)c2)C1=O (configuration not stated)	-14%
CC(O)CCl (configuration not stated)	1%
S=C(S)N1CCCC1	10µM*
COC(=O)[C@@H]1[C@@H]2C[C@H]3c4[nH]c5cc(OC)ccc5c4CCN3C[C@@H]2C[C@H](OC(=O)/C=C\c2cc(OC)c(OC)c(OC)c2)[C@H]1OC	?
CC12CN3CC(c4ccccc4)(CN(C1)C31CCCCC1)C2=O	0%
FC(F)(F)/C(=N\P(=S)(N1CCOCC1)N1CCOCC1)N1CCOCC1	-8%
Cc1nn(Cc2ccccc2Cl)c(Cl)c1C(=O)OCC(=O)NC(=O)NC1CCCCC1	-17%
O=C(c1cc(C(=O)NCc2ccccc2)c(=O)n(Cc2ccccc2)c1)c1cc(Br)ccc1O	10µM*
Cc1cccnc1-n1c(CN2C(=O)c3ccccc3C2=O)nc2ccccc2c1=O	-10%
CCCC(C)n1[nH]c(=O)c2c1NC(=O)CSC2c1ccc(OC)c(OC)c1 (configuration not stated)	5%
CC/C=C\C/C=C\C/C=C\C/C=C\C/C=C\CCCC(=O)NCCO	-7%
CN(C)C(=O)Oc1ccc(OC(=O)N(C)C)cc1	-11%
C#CC1(O)CCC2C3CCC4=CC(=O)CCC4(C)C3CCC21C (configuration not stated)	0%
CC[N+]12CCC(CC1)C(=C(c1ccccc1)c1ccccc1)C2	-7%
NCC[Se][Se]CCN	2.8µM*
NC(=S)N/N=C/c1coc2ccccc2c1=O	-19%
O=C1C2CCCN2C(c2cccnc2)N1c1cccc(Cl)c1 (configuration not stated)	-3%
NC1CCC(CC2CCC(N)CC2)CC1 (configuration not stated)	-10%
COc1cccc(OC)c1C1=NCC(=O)Nc2c1oc1ccc(Br)cc21	-20%
CCCCn1c(O)c(C(CC)=Nc2ccc(OCC)cc2)c(=O)[nH]c1=O	-15%
Clc1ccc2nc3c(c(-c4ccccc4)c2c1)CNCC3	0%
Nc1nc(N)c2nc(CNc3ccc(C(=O)NC(CCC(=O)O)C(=O)O)cc3)cnc2n1 (configuration not stated)	?
N#Cc1cc2c(nc1SCC(=O)Nc1ccc(Cl)cc1)C1CCN2CC1	-16%
Cc1ccc(/C=C2\C(=O)NC(=O)N(CCc3ccc(F)cc3)C2=O)o1	3.5µM*
Cc1sc2ncn(CC(=O)N3CCC4(CC3)OCCO4)c(=O)c2c1C	1%
COc1ccc(CNC(=O)/C=C\c2ccc3[nH]cc(CCN(C)C)c3c2)cc1	-14%
Nc1ncc(P(=S)(N2CCOCC2)N2CCOCC2)s1	-7%
COc1cccc(OCC(=O)N2CCN(C)CC2)c1	-18%
O=S(=O)(Nc1ccc(-c2nc3ccccc3o2)cc1)c1ccccc1	?
Cc1ccc(Cn2cc(C=O)c(-c3ccc(C)cc3)n2)cc1	-9%
CNC(=O)Oc1cccc(-c2cn3cc(Cl)ccc3n2)c1	?
COc1cc2c(cc1OC)C(C(=O)N(C)C1CCCCC1)C1CCCCN1C2=O (configuration not stated)	-9%
Cc1ccc(O)c(C(=O)c2cc(C(=O)NCc3ccccc3)c(=O)n(Cc3ccccc3)c2)c1	-29%
O=C(O)C(Oc1nc(=S)[nH]c(=S)[nH]1)(c1ccc(Cl)cc1)c1ccc(Cl)cc1	-6%
COc1nc2ccccc2c(=O)n1-c1ccc(C)cc1	-12%
CCOC(=O)c1ncn2c1[C@@H]1CCCN1C(=O)c1cc(OC)ccc1-2	-10%
COc1ccc2c(c1)c(C(=O)O)c(C)n2CC(C)C	-3%

A different layout for some results above.
| mol | HPGD inh |
| --- | --- |
| CC/C=C\C/C=C\C/C=C\C/C=C\C/C=C\CCCC(=O)NCCO | -7% |
| CNC(=O)Oc1cccc(-c2cn3cc(Cl)ccc3n2)c1 | ? |
| CC(C(N)=O)N1CC(c2ccc(Cl)cc2)CC1=O (configuration not stated) | -1% |
| COc1cccc(OC)c1C1=NCC(=O)Nc2c1oc1ccc(Br)cc21 | -20% |
| O=S(=O)(Nc1ccc(-c2nc3ccccc3o2)cc1)c1ccccc1 | ? |
| C=CCSc1nnc(NC(=O)c2ccc(Cl)nc2)s1 | 28µM* |
| Nc1nc(N)c2nc(CNc3ccc(C(=O)NC(CCC(=O)O)C(=O)O)cc3)cnc2n1 (configuration not stated) | ? |

Part of the list above, reformatted.
O=S(=O)(Nc1ccc(-c2nc3ccccc3o2)cc1)c1ccccc1
  HPGD inh: ?
Cc1ccc(Cn2cc(C=O)c(-c3ccc(C)cc3)n2)cc1
  HPGD inh: -9%
CNC(=O)Oc1cccc(-c2cn3cc(Cl)ccc3n2)c1
  HPGD inh: ?
COc1cc2c(cc1OC)C(C(=O)N(C)C1CCCCC1)C1CCCCN1C2=O (configuration not stated)
  HPGD inh: -9%

More records:
SMILES	HPGD inh
O=C(NCC(c1cccnc1)N1CCN(c2ccccc2F)CC1)Oc1ccccc1 (configuration not stated)	-24%
Cc1nnc2n1-c1ccc(Cl)cc1C(c1ccccc1)=NC2	16µM*
O=C1NCCN2CCCC12 (configuration not stated)	-6%
CC(C)[C@]1(O)[C@@H](OC(=O)c2ccc[nH]2)[C@]2(O)[C@@]3(C)C[C@@]4(O)O[C@@]5([C@H](O)[C@@H](C)CC[C@]35O)[C@]2(O)[C@]41C	-7%
O=[N+]([O-])c1cccc(CCl)c1	-7%
Oc1cc(Cl)c(Cl)cc1Cl	5.6µM*
OCCCBr	-2%
Cc1cccc(N2C(=O)NC(=O)/C(=C\c3ccc4c(c3)CCCN4Cc3ccccc3)C2=O)c1	7.1µM*
CN1C[C@H](CO)C=C2c3cccc4[nH]cc(c34)C[C@@H]21	?
c1nc(N2CC2)c2cnn([C@@H]3CCCCO3)c2n1	-7%
O=C(COc1ccc(Br)cc1)N1CCN(C2CCCC2)CC1	-7%
C=CCOC(=O)C1=C(C)OC(N)=C(C(=O)OCC)C12C(=O)N(CC(N)=O)c1ccccc12 (configuration not stated)	-11%
O=[N+]([O-])c1ccc(O)c([N+](=O)[O-])c1	-2%
NCC(CP(=O)(O)O)c1ccc(Cl)cc1 (configuration not stated)	-11%
CCOC(=O)c1ncn2c1CN(C)C(=O)c1cc(N=[N+]=[N-])ccc1-2	-11%
CN(C)CC1CSCCC1(O)c1ccc(C(F)(F)F)cc1 (configuration not stated)	-16%
COc1cccc(CCNCc2ccc(SC)cc2)c1	2%
Cc1cc(OCC(=O)OC(C)C)c2c3c(c(=O)oc2c1)CCCC3	?
CN1CCN(C(=S)c2ccc([N+](=O)[O-])cc2)CC1	28µM*
CCN(CC)C(=O)c1ccc(NC(=O)COc2ccc([N+](=O)[O-])cc2Cl)cc1	0.5µM*
CCCCn1c(O)c(C(CC)=NCc2cc(OC)cc(OC)c2)c(=O)[nH]c1=O	-18%
CCCC[N+]12CCC(CC1)C(=C(c1ccccc1)c1ccccc1)C2	2%
O=C(c1ccccc1F)c1cn(CC(=O)N2CCCCC2)c2ccccc12	-5%
Cc1ccc2c(c1)C1CN(C)CCC1N2C(=O)c1ccc(Br)o1 (configuration not stated)	-16%
COC1C(O)C(OC2CC[C@]3(C=O)C4C(OC(C)=O)C[C@@]5(C)C(C6=CC(=O)OC6)CC[C@]5(O)C4CC[C@]3(O)C2)OC(C)C1OC(C)=O (some centres not stated)	2%
O=C(NCNC(=O)N[C@H]1C(=O)NC(=O)N1CO)N[C@H]1C(=O)NC(=O)N1CO	-5%
O=c1[nH]c(=O)n(C2CCCCCC2)c(O)c1C=NCCCN1CCOCC1	-4%
c1ccc2c(c1)-c1cccc3c1c-2cc1ccccc13	?
CC(NCc1ccc(Cl)cc1Cl)C(O)c1ccccc1 (configuration not stated)	-2%
Cc1ccc(Cn2c(C)c3cnn(CC(=O)N4CCC5(CC4)OCCO5)c(=O)c3c2C)cc1	-22%
CCCCn1c(O)c(C(C)=NCCN2CCCCC2)c(=O)[nH]c1=O	-11%
CC(=O)Nc1ccc(OC(=O)N(C)c2ccccc2)cc1	-4%
O=C(Oc1ccccc1)N1CCC2(CCN(Cc3ccncc3)CC2)CC1	-14%
NC(CCCCCP(=O)(O)O)C(=O)O (configuration not stated)	-16%
CSc1nc(NC(C)C)nc(NC(C)C)n1	-8%
Cc1ccc(-n2c(O)c(C=Nc3ccccc3N)c(=O)[nH]c2=O)cc1C	-18%
COc1cc2c(cc1OC)-c1c(OC)c(OC)c(CO)c3c1C(C2)N(C)CC3 (configuration not stated)	?
CN1CCN(C(=O)O[C@@H]2c3nccnc3C(=O)N2c2ccc(Cl)cn2)CC1	0%
O=C(COc1ccccc1)N1CCN(C2CC3CCC2C3)CC1 (configuration not stated)	-5%
COc1ccc(-n2c(=O)[nH]c3ccccc3c2=O)cc1	-7%
COC(=O)[C@@]1(Cc2ccccc2)[C@H]2c3cc(C(=O)N(C)C)[nH]c3C[C@H]2CN1C(=O)c1ccccc1	-1%
Nc1ncn[nH]1	-7%
Cc1nc2ccccc2c(=O)n1-c1ccccc1C(F)(F)F	-12%
COc1c(O)ccc2c1-c1c3c(cc4c1C(C2)N(C)CC4)OCO3 (configuration not stated)	-5%
Clc1ccc(COC(Cn2ccnc2)c2ccc(Cl)cc2Cl)cc1 (configuration not stated)	0%&-10%&-18%
Cc1ccc2c(c1)C1CN(C)CCC1N2C(=O)Cn1cnc2c1c(=O)n(C)c(=O)n2C (configuration not stated)	-14%
CN(C)c1ccc(CN2CC=C(c3ccc(F)cc3)CC2)cc1	-9%
ClC1=C(Cl)C2(Cl)C3C4C=CC(C4)C3C1(Cl)C2(Cl)Cl (configuration not stated)	-5%&-4%
CNNC	?
CCCCC1(CN2CCCC2=O)C(=O)NC(=O)NC1=O	-14%

Remaining list, next part:
SMILES	HPGD inh
CCCCn1c(-c2ccoc2C)n[nH]c1=S	?
Cc1ccnc(-n2c(-c3ccccc3)nc3ccccc3c2=O)c1	-10%
CO[C@@H]([CH2][Hg])CN1C(=O)c2ccccc2S1(=O)=O.Cn1c(=O)c2nc[nH]c2n(C)c1=O	1.4µM*
COc1ccc(-n2c(O)c(/C=C/C=Nc3ccccc3)c(=O)[nH]c2=O)cc1	-27%
C[N+](=O)[O-]	-3%
c1ccc(C2CC3CC4(CCCC4)N2O3)cc1 (configuration not stated)	-7%
C[C@@H](N)Cc1cnc[nH]1	-5%&-1%
Cc1nn(C2CCOC(C)(C)C2)c2c1C(c1ccc3c(c1)OCO3)SCC(=O)N2 (configuration not stated)	-7%
O=C(CCc1nc(-c2ccccc2F)no1)N1CCC2(CC1)OCCO2	-9%
C=C(Cl)CSC(=S)N(CC)CC	-3%
COc1ccc(/C=C2\C(=O)NC(=O)N(CCC3=CCCCC3)C2=O)c(OC)c1	20µM*
Cc1ccc(/C=C2\C(=O)NC(=S)N(c3ccccc3F)C2=O)s1	2.2µM*
CS(=O)(=O)O[C@H]1CN2CCC1CC2	-1%
CC(=O)OC1C2C(OC(=O)Cc3ccccc3)C(C)CC2(OC(C)=O)C(=O)/C(C)=C/C2C(CC[C@@]13CO3)C2(C)C (some centres not stated)	-12%
CSCCC(N=Cc1c(O)n(-c2ccc(Cl)cc2)c(=O)[nH]c1=O)C(=O)OC(C)(C)C (configuration not stated)	-8%
CCOCCN1CCC(OC(C)=O)C(C)C1 (configuration not stated)	-8%
O=P1(N(CCCl)CCCl)NCCCO1 (configuration not stated)	4%&-1%&-6%
COc1ccccc1-n1c(O)c(C=NCc2ccc3c(c2)OCO3)c(=O)[nH]c1=O	-24%
Cc1ccc(C)c(C2(O)CC(C)N(C)CC2C)c1 (configuration not stated)	-7%
CC(C)CCn1c(=O)c(C(=O)Nc2ccccc2S(N)(=O)=O)c(O)c2ccccc21	?
COC(=O)c1sc2nc(SCc3cccc(F)c3)n(N)c(=O)c2c1C	?
CC1(C)CC2(CCO1)NCCN1C(=O)CSC12 (configuration not stated)	-18%
COc1ccccc1CN1CCCCC1c1cccnc1 (configuration not stated)	-10%
CCCCN(CC)c1c([N+](=O)[O-])cc(C(F)(F)F)cc1[N+](=O)[O-]	-7%
Cc1nc2cc(C(F)(F)F)ccc2n1C1CCN(Cc2nnnn2Cc2cccs2)CC1	-4%
CN1CCN(CC(=O)Nc2ccc(Cl)cc2C(=O)c2ccccc2)CC1	-5%
NCC[C@H](O)C(=O)N[C@H]1C[C@@H](N)[C@@H](O[C@H]2O[C@@H](CN)[C@@H](O)[C@@H](O)[C@@H]2N)[C@@H](O[C@H]2O[C@@H](CO)[C@@H](O)[C@@H]2O)[C@@H]1O	-6%

Assay outcomes: PubChem BioAssay, National Center for Advancing Translational Sciences (NCATS)
